# Mtb hypoxia inh – PubChem AID 1159583. M. tuberculosis hypoxia-regulated fluorescent reporter, fluorescence. fluorescence inhibition, % (test concentration not listed). hit rate 0.1% among 300,000;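 active = 35 to 45% if threefold the growth effect, above 45% if 1.5-fold the growth effect; inactive = the rest, general growth blockers included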;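 also: wells of about 50 µL received 100 nL stock; 0% = vehicle wells and 100% = reference inhibitor wells; whole bacteria with a GFP reporter of the hypoxia response; strong numbers were not always called active; many hits fall short of the cut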
# PrP UTR inh – inhibition of PrP 5' UTR reporter expression; cell-based PrP 5' UTR mRNA reporter, plate reader; hit rate 0.35% among 340,000; inhibition, % (no concentration beside the values); AID 488862, 2010;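 active = every replicate at 50% or more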;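 also: 0 = median of the neutral control wells; tested in H4 reporter cells; numbers are from one replicate; inactives centre near -14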
# Sa ugtP lethal – growth inhibition of ugtP-null S. aureus, primary screen, RN4220 ugtP deletion, OD600; 16 h; some inactives read as strong as hits; hit rate 0.54% among 330,000; growth inhibition, % (no concentration beside the values);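 active = z-score under -3 and OD600 up to 0.15 on both plates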;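 also: plate controls were untreated wells for no effect and antibiotic for full effect; wells of about 80 µL received 100 nL stock; the first replicate is given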
# BJeLR viability – MLPCN primary cell-based screen for lethality selective to Ras in HRASV12 cells. inhibition, % (concentration not given with the values). hit rate 0.17% among 300,000. BJeLR (HRASV12) viability, CellTiter-Glo ATP luminescence, 48 h; reference of the scale not given here;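 active = replicate mean above 50%; inconclusive = above 50% but judged a plate artefact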;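 also: 50 nL library stock added to about 25 µL; numbers are from one replicate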
# Bead autofluor – counter-screen for toxin protease inhibitors: compound fluorescence. compound autofluorescence counterscreen, microsphere flow cytometry; stronger effect = higher value. fluorescence intensity (no concentration beside the values). hit rate 3.1% among 360,000. AID 624483;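 active = at least 3 SD above the mean of all compounds, about 16000 in these data; inconclusive = too few beads counted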;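 also: 100 nL of 1 mM stock went into each well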
# RN4220 kill – growth inhibition of S. aureus RN4220, primary screen, OD600 | inhibition, % (no concentration beside the values) | AID 1259311, 2017 | 16 h | hit rate 0.33% among 330,000;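 active = z-score of -3 or lower and OD600 up to 0.18 on both plates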;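 also: plate controls were untreated cells for no effect and reference antibiotic for full effect; stock transfer was 100 nL into about 80 µL; one replicate is shown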
# Mtb hypoxia inh growth – also measured in Mtb hypoxia inh; calls as there; growth inhibition, %; measured here: M. tuberculosis growth (absorbance);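 0% = vehicle and 100% = reference antibiotic; read after six days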
# Numbers without * were called inactive; ? = inconclusive; . = not tested or not shown. Random draw from the library. Share with any hit: about 4%.
entry	Structure	BJeLR viability	Bead autofluor	Mtb hypoxia inh	RN4220 kill	Mtb hypoxia inh growth	PrP UTR inh	Sa ugtP lethal
1	C(=NNc1nc2ccccc2[nH]1)C1CCCCC1	.	.	5	1.5	4	.	4
2	N/C(=N\OC(=O)CC1CCCCC1)c1ccncc1	-4	2522	17	4.4	8	-15	-1
3	CC(C)c1ccc(/C=C/C(=O)Nc2nn[nH]n2)cc1	2	.	8	4.5	-4	.	9
4	Cc1cc(/C=C2\SC(=O)N(C)C2=O)c(C)n1-c1cccc(C(=O)O)c1	3	3312	-5	1.8	-7	-6	-1
5	Cn1cccc1Cc1nnc(SCC(=O)Nc2ccccc2)n1-c1ccc(F)cc1	-8	5587	.	6.2	.	-17	10
6	CN(C)C=NNC(=O)C1Cc2c(ccc3ccccc23)O1 (configuration not stated)	.	.	9	2.1	5	.	2
7	Cc1cccc(Nc2c3c(nc4ncnn24)CCC3)c1	3	2624	5	5.3	15	-6	-4
8	CCC(O)(CC)C(=O)NN(C(=O)Nc1csc2c1CCCC2)c1ccccc1	-5	2437	16	5.3	2	-14	11

# New compounds follow.
entry	Structure	BJeLR viability	Bead autofluor	Mtb hypoxia inh	RN4220 kill	Mtb hypoxia inh growth	PrP UTR inh	Sa ugtP lethal
9	Cc1ccccc1CNC(=O)c1ccccc1C(=O)O	1	3667	-2	3.2	2	-13	0
10	COC(=O)[C@@]1(Cc2ccc(F)cc2)C2c3cc(C(=O)N4CCCC4)n(CCc4c[nH]c5ccc(OC)cc45)c3CC2CN1C(=O)c1ccccc1 (some centres not stated)	.	.	8	3.9	5	.	-2
11	COc1ccc(CNC(=O)CN(C(=O)CCC(=O)Nc2nccs2)c2ccc3c(c2)OCO3)cc1	-6	3348	0	1.6	4	-9	6
12	COCCCn1c(SCC(=O)Nc2ccccc2)nnc1-c1ccncc1	-1	3487	.	3.8	.	-4	0
13	COc1ccc(C(=O)NCc2ccc3c(c2)OCO3)cc1S(=O)(=O)N(C)Cc1ccccc1	-10	2052	1	9.6	2	-11	6
14	Cc1ccc(C(=O)NC(=S)Nc2cc(-c3nc4ccccc4s3)ccc2C)cc1	8	3203	-6	2.5	-1	-61	-3
15	Oc1ccc(C[C@H]2CNCCN2CCCCC2CCCCC2)cc1	5	4124	.	.	.	-12	.
16	CC(C)=CCCC(C)CN1CCC(n2nccc2NC(=O)c2cccnc2)CC1 (configuration not stated)	-15	5161	8	1.5	2	1	1

# Next compounds.
entry	Structure	BJeLR viability	Bead autofluor	Mtb hypoxia inh	RN4220 kill	Mtb hypoxia inh growth	PrP UTR inh	Sa ugtP lethal
17	Cc1cccc(NC(=O)c2ccc(S(=O)(=O)N3CCCCC3C)cc2)n1 (configuration not stated)	-7	4591	8	-1.2	5	-27	7
18	Cc1noc(C)c1S(=O)(=O)Nc1ccc(C(=O)NCc2ccccc2)cc1	4	4881	-4	5.0	12	-25	20
19	C#CCOCCOCCOCCNc1nc(N2CCN(C(=O)[C@H](CCCCN)n3cc(CN)nn3)CC2)nc(N2CCN(C(=O)[C@H](CCC(=O)O)n3cc(CN)nn3)CC2)n1	.	3955	-11	2.6	-2	-9	4
20	CC(=O)NS(=O)(=O)c1cccnc1Nc1ccc(Cl)c(Cl)c1	-2	2368	.	12	.	-1	-5
21	Cc1ccc(-c2nn(C)c(=O)c3ccccc23)cc1S(=O)(=O)NCCO	-5	10449	-2	3.8	11	1	-7
22	COC(=O)Cn1ncc2c3ccccc3n(Cc3ccccc3)c2c1=O	-3	8913	6	2.3	-1	-8	5
23	CN(C)CCNc1nc(-c2ccccc2)c2c(c1C#N)CC(C)(C)OC2	0	2350	-22	0.7	-11	-6	1
24	N#Cc1ccc(C(=O)Nc2nc(SCc3ccc(Cl)cc3)n[nH]2)cc1	6	4347	0	4.1	-5	16	8

# Carrying on.
entry	Structure	BJeLR viability	Bead autofluor	Mtb hypoxia inh	RN4220 kill	Mtb hypoxia inh growth	PrP UTR inh	Sa ugtP lethal
25	Cc1cccc(OCC(=O)N2CCN(C(=O)CCC3CCCC3)CC2)c1	6	2411	-7	13	1	-12	7
26	CCC1(c2ccccc2)NC(=O)N(CC(=O)NNC(=O)COc2ccc(Cl)cc2C)C1=O (configuration not stated)	.	4054	15	0.7	9	-27	1
27	COC(=O)C1C(=O)C2=C(CC1C)NC(C)=C(C(=O)OC1CCCC1)C2c1ccc(N(C)C)cc1 (configuration not stated)	.	4102	7	-1.0	-4	7	18
28	COc1ccccc1-c1cnn2c(NC3CCCC3)cc(C)nc12	5	3429	.	.	.	-54	.
29	COc1ccc2nc(C)cc(SCC(=O)NN=Cc3cccc4ccccc34)c2c1	.	.	12	6.4	12	.	-11
30	Cn1c(CC(=O)Nc2ccc(Cl)c(Cl)c2)nnc1SCC(=O)Nc1nccs1	1	11192	5	4.0	5	-19	8
31	CCOC(=O)C1(Cc2cccc(Cl)c2)CCCN(C(=O)CCN2CCCC2=O)C1 (configuration not stated)	5	5274	.	.	.	-17	.
32	O=C(O)c1cccc(NC(=S)NC(=O)c2ccc3ccccc3c2)c1	-3	5692	0	16	3	28	-3

# (listing goes on)
entry	Structure	BJeLR viability	Bead autofluor	Mtb hypoxia inh	RN4220 kill	Mtb hypoxia inh growth	PrP UTR inh	Sa ugtP lethal
33	CCN(CC)C(=O)Nc1ccc(Br)cc1	5	4442	7	-2.4	3	-15	0
34	CCNc1nc(NCC)n2c(SCC(=O)Nc3ccccc3Cl)nnc2n1	-2	5026	-2	3.9	6	-17	2
35	O=C(NCCCN1CCC(Cc2ccccc2)CC1)C1CC(=O)N(C2CCCCCC2)C1 (configuration not stated)	-7	20812*	9	3.5	8	-10	0
36	FC(F)(F)c1cc(COC2CCCNC2c2ccccc2)cc(C(F)(F)F)c1 (configuration not stated)	.	.	13	1.4	6	.	-19
37	Cn1c(N)nc2ccccc2c1=O	-9	4089	-4	5.2	2	.	3
38	C=C1CCN(C(CC(C)C)C(=O)NCc2ccc(Cl)cc2)S(=O)(=O)c2ccccc21 (configuration not stated)	.	.	14	5.3	14	.	6
39	CCN(C(=O)c1cccnc1SC)C12CC3CC(CC(C3)C1)C2	-15	4026	1	6.6	3	-6	5
40	O=[N+]([O-])c1cc(F)c(N2CCCCCC2)cc1N1CCNCC1	1	2519	-13	-4.1	-3	-4	-2

# A draw from above in order of molar mass, lowest first:
entry	Structure	BJeLR viability	Bead autofluor	Mtb hypoxia inh	RN4220 kill	Mtb hypoxia inh growth	PrP UTR inh	Sa ugtP lethal
37	Cn1c(N)nc2ccccc2c1=O	-9	4089	-4	5.2	2	.	3
33	CCN(CC)C(=O)Nc1ccc(Br)cc1	5	4442	7	-2.4	3	-15	0
28	COc1ccccc1-c1cnn2c(NC3CCCC3)cc(C)nc12	5	3429	.	.	.	-54	.
39	CCN(C(=O)c1cccnc1SC)C12CC3CC(CC(C3)C1)C2	-15	4026	1	6.6	3	-6	5
32	O=C(O)c1cccc(NC(=S)NC(=O)c2ccc3ccccc3c2)c1	-3	5692	0	16	3	28	-3
36	FC(F)(F)c1cc(COC2CCCNC2c2ccccc2)cc(C(F)(F)F)c1 (configuration not stated)	.	.	13	1.4	6	.	-19
34	CCNc1nc(NCC)n2c(SCC(=O)Nc3ccccc3Cl)nnc2n1	-2	5026	-2	3.9	6	-17	2
35	O=C(NCCCN1CCC(Cc2ccccc2)CC1)C1CC(=O)N(C2CCCCCC2)C1 (configuration not stated)	-7	20812*	9	3.5	8	-10	0
38	C=C1CCN(C(CC(C)C)C(=O)NCc2ccc(Cl)cc2)S(=O)(=O)c2ccccc21 (configuration not stated)	.	.	14	5.3	14	.	6
30	Cn1c(CC(=O)Nc2ccc(Cl)c(Cl)c2)nnc1SCC(=O)Nc1nccs1	1	11192	5	4.0	5	-19	8

# More results
entry	Structure	BJeLR viability	Bead autofluor	Mtb hypoxia inh	RN4220 kill	Mtb hypoxia inh growth	PrP UTR inh	Sa ugtP lethal
41	COc1cc(NC(=O)COC(=O)CNC(=O)c2ccc(Cl)cc2)c(C)cc1[N+](=O)[O-]	1	2419	1	1.3	9	5	2
42	O=C(NCc1cc(F)ccc1F)C1CCC(=O)N(C2CCCCCC2)C1 (configuration not stated)	-3	5758	0	0.9	-2	-44	3
43	CN(CC1CCCN(CCc2ccc(Cl)cc2)C1)C(=O)c1ccc2nc[nH]c2c1 (configuration not stated)	6	6380	-1	-6.4	0	-11	10
44	O=C(Nc1ccc(Cl)cc1)N1CCC(c2ccccc2)C1 (configuration not stated)	-4	4744	10	-1.9	-2	-83	-15
45	O=C(COc1ccccc1Cl)Nc1ccc2[nH]c(=O)[nH]c2c1	.	6789	4	10.0	1	2	4
46	Clc1ccccc1CSc1cnnc2ccccc12	.	3999	14	2.8	13	-42	-7
47	CC(/C=N/NC(=O)Cc1cccs1)=C\c1ccco1	6	21994*	.	.	.	-15	.
48	Cc1nn(C)c(C)c1/C=N/O	1	2973	.	.	.	-30	.

# Continuation:
entry	Structure	BJeLR viability	Bead autofluor	Mtb hypoxia inh	RN4220 kill	Mtb hypoxia inh growth	PrP UTR inh	Sa ugtP lethal
49	CCN(CCNC(=O)CCCn1nc(C)n2c(cc3sccc32)c1=O)c1ccccc1	-7	5381	2	-4.4	1	-10	0
50	Cc1cccc(NC(=O)NC(C)C(=O)O)c1 (configuration not stated)	.	.	5	-3.5	8	.	-8
51	COc1ccc(/C=C2\CCc3ccccc3C2=O)cc1OC	5	10363	-6	5.3	0	-27	-5
52	COc1ccc2nc3c(cc2c1)c(NC(=O)c1cccs1)nn3CC(C)C	-10	2491	.	1.0	.	-14	-10
53	COc1cc(C)ccc1OCCCCOc1ccccc1C(C)=O	1	2367	-5	1.0	-4	-27	7
54	O=C(Cc1cccs1)NN=CC=Cc1ccccc1[N+](=O)[O-]	.	.	11	4.5	12	.	-2
55	NC(=O)COc1ccc(/C=N\NC(=O)c2ccc(-c3ccccc3)cc2)cc1	-11	4257	.	.	.	-7	.
56	COc1ccc(NC(=O)c2cccc(S(=O)(=O)NCc3ccco3)c2)c(OC)c1	4	?	6	-0.7	3	-9	3

# Following part
entry	Structure	BJeLR viability	Bead autofluor	Mtb hypoxia inh	RN4220 kill	Mtb hypoxia inh growth	PrP UTR inh	Sa ugtP lethal
57	CN(c1ccc(C(=O)NC2CC2)cc1)S(=O)(=O)c1ccccc1	-3	3455	.	-0.3	.	-16	2
58	NC(=NO)c1ccc(NC(=O)c2ccc(Br)o2)cc1	.	.	9	4.1	4	.	1
59	Cc1cccc(N2CCN(S(=O)(=O)c3c(C)nc4scc(C)n4c3=O)CC2C)c1 (configuration not stated)	-11	6350	19	0.4	2	-13	-4
60	c1ccc(-c2cn3c(n2)CCC3)cc1	3	2699	.	2.5	.	5	4
61	O=C(NCc1ccccc1)c1nc[nH]c1C(=O)N1CCN(c2ccccc2)CC1	.	3725	-5	-2.8	-7	-16	-10
62	O=C(Nc1ccncc1)c1cc(F)cc(F)c1	6	3466	-1	5.9	3	-17	5
63	CCC(=O)Nc1sc2c(c1C#N)CCCCC2	-4	3113	9	-14	17	-18	-12
64	Cc1ccc(-c2cc(Cc3ccc(F)cc3)c(=O)[nH]n2)cc1	-3	4659	4	1.9	3	-14	2

# (list continues)
entry	Structure	BJeLR viability	Bead autofluor	Mtb hypoxia inh	RN4220 kill	Mtb hypoxia inh growth	PrP UTR inh	Sa ugtP lethal
65	c1ccc(-n2ncc3c2ncn2nc(-c4ccco4)nc32)cc1	4	13085	5	8.8	7	-120	-4
66	O=C(NCCSCc1c(F)cccc1Cl)Nc1ccccc1	-1	3974	2	-1.8	-1	.	6
67	COc1ccc(/C=C/C(=O)c2cc3cccc(OC)c3oc2=O)cc1	0	4466	9	5.4	-5	-11	-2
68	Cc1ccc(C(C(=O)NC2CCCCC2)N2CCCC2)cc1 (configuration not stated)	4	3664	3	6.8	7	-2	3
69	CCN(CC)S(=O)(=O)c1cc(C(=O)OCC(=O)Nc2ccc(-c3nc4ccc(C)cc4s3)cc2)ccc1F	-1	2536	12	-1.5	2	-38	-12
70	CCn1c(SCC(=O)NC2CC2)nnc1-c1ccc(OC)cc1	2	4922	3	-4.2	11	-21	6
71	CC1CCCCN1C(=O)CN(C)S(=O)(=O)c1cccc2nsnc12 (configuration not stated)	7	5973	1	2.6	0	-4	-1
72	CCCCC(=O)N1C/C=C\C(c2ccc(OC)cc2)N(Cc2ccc(F)cc2)C(=O)[C@H]1Cc1ccccc1 (some centres not stated)	7	3052	.	.	.	-1	.
